Source: PubChem BioAssay (National Center for Advancing Translational Sciences (NCATS))
HPGD block: qHTS Assay for Inhibitors of HPGD (15-Hydroxyprostaglandin Dehydrogenase); purified HPGD, NADH fluorescence kinetic, PGE2 substrate; 4.3% of 150,000 active; Potency, µM, for the others: top-dose activity change, negative = inhibition, hits mostly inhibitors; 15-hydroxyprostaglandin dehydrogenase [NAD(+)] (Homo sapiens), P15428; active = well fitted inhibition curve with a large enough effect (not every such curve was filed as active); inconclusive = small, poorly fitted or top-dose-only effect, or another doubt; inactive = no such curve, though single readings can be large or run the other way;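 further: top concentration of the series not given in the record; plate controls included wells without enzyme; inactives centre near -10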
Target sequence (P15428 whole entry, looked up): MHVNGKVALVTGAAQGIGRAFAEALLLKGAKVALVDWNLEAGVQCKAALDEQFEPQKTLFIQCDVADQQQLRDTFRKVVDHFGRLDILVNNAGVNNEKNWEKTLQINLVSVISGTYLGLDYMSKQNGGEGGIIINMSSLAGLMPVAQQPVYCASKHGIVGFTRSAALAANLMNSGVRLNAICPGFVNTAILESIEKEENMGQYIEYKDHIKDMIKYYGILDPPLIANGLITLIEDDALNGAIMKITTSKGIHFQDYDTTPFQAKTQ
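NADH formation kinetics: reaction with 30 uM PGE2 and 1 mM NAD+ (final), 20 nM enzyme, Tris-HCl pH 8 with Tween 20, after 15 min compound preincubation at room temperature. Fluorescence change, last versus first of five reads.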
Starred values were filed as active, the others as inactive; ? = inconclusive. On the % scale 0 is the no-effect control and ±100 the full control effect; potency means the concentration at half of the fitted maximal effect. Not all compounds are listed, so the mix of outcomes need not match the whole.

SMILES | HPGD block
COCCn1c(SCC(=O)N2CCCCC2)nc2ccccc2c1=O | -23.3%
COC(=O)c1c(-c2ccc(F)cc2)csc1NC(=O)c1ccco1 | ?
CCn1c(Cn2nnc(-c3ccccc3)n2)nnc1SCc1ccc(Cl)c(Cl)c1 | -14.4%
COc1ccc(C(N)=S)c(OC)c1 | 39.8µM*
Cc1ccc(OCCSc2nnc(NC(=O)c3ccco3)s2)cc1 | -26.0%
COc1ccc(C2c3c(ccc4ccccc34)Oc3ncn4nc(-c5ccco5)nc4c32)cc1OC (stereo unspecified) | ?
Oc1cc2ccccc2cc1-c1n[nH]c(=S)o1 | ?
COc1ccccc1-c1cc(C(F)(F)F)nc(S(=O)(=O)CCCC(=O)N2CCCCC2C)n1 (stereo unspecified) | ?
CCN(CC)CCN1c2ccccc2Sc2ccc3ccccc3c21 | -18.2%
CC(=O)/C(=N\Nc1ccccc1Cl)Sc1cccc2cccnc12 | ?
CCN(Cc1ccccc1)S(=O)(=O)c1nc2nc(C)c(C)c(C)n2n1 | -2.1%
O=C(Cn1cc(C(=O)c2cccs2)c2ccccc21)NCc1ccc2c(c1)OCO2 | -5.2%
CCOC1=NS(=O)(=O)c2ccccc21 | 2.0%
O=C(Nc1ccccc1)Nc1nnc(SCc2ccc(Cl)cc2)s1 | 0.6%
COc1ccc(NC(=O)c2c(-c3ccccc3Cl)noc2C)c(OC)c1 | -12.2%
CCOC(=O)N1CCN(C(=O)c2cc3c(=O)n(C)c4ccccc4c3n2C)CC1 | -5.1%
CCOc1ccc(N2C(=O)Nc3ccccc3C2(O)C(=O)NCc2ccc3c(c2)OCO3)cc1 (stereo unspecified) | -4.4%
Cc1cc2c(c(=O)o1)C(Cc1ccccc1)C(C#N)=C(N)O2 (stereo unspecified) | 0.2%
CCOc1ccc(/C=N/NC(=O)COc2ccccc2-c2ccccc2)cc1 | -10.0%
Oc1cc(O)c2c(c1)OC(c1ccc(O)c(O)c1)C(O)C2 (stereo unspecified) | ?
CCOc1ccc(N(CC(=O)NC2CCCCCC2)S(=O)(=O)c2c(C)noc2C)cc1 | -12.1%
NC(=O)N(CCC(=O)O)c1ccccc1 | -4.7%
Cc1nnc(SCC(=O)N2CCC(C(N)=O)CC2)s1 | -10.9%
Cc1nnn(C23CC4CC(CC(C(=O)NN)(C4)C2)C3)n1 | 2.3%
O=C(COC(=O)CCOc1ccccc1)Nc1ccc(Cl)cn1 | -3.4%

(further entries)
SMILES | HPGD block
COc1ccc(C(=O)N/N=C/c2ccc(OC)c(CN3CCN(c4ccc(F)cc4)CC3)c2)cc1 | -27.1%
CCc1ccc(/C=N/NC(=O)c2c[nH]c3ccccc23)s1 | -8.8%
Cc1ccc(N(C(=O)c2csnn2)C(C(=O)NC(C)(C)C)c2ccncc2)cc1 (stereo unspecified) | -2.4%
CC(C)Oc1ccc(C(=O)Nc2ccccc2N2CCCC2)cc1 | -17.4%
COCCOc1ccc(C(F)(F)F)cc1Nc1nc2ccccc2o1 | -28.9%
COc1cccc(/C=N/n2cncn2)c1OCC#N | ?
CC(C)[C@H](NC(=O)NC1CCCC1)C(=O)O | -1.6%
CCOc1cc(C(=O)N2CCN(c3ccc(C(C)=O)cc3)CC2)cc(OCC)c1OCC | -8.6%
CCc1ccc(C(=O)/C=C/c2ccc([N+](=O)[O-])o2)cc1 | -24.0%
CCc1ccccc1N1C(=O)c2ccccc2S1(=O)=O | -10.9%
COC(=O)C(CCSC)NC(=O)c1cccc([N+](=O)[O-])c1 (stereo unspecified) | -4.4%
CC(=O)Nc1nc(C(F)(F)F)cs1 | -15.3%
CCC/C=C(\CCC)C(NC(=O)c1ccc(C(F)(F)F)cc1)c1ccc(C(F)(F)F)cc1 (stereo unspecified) | -3.0%
Cc1cc(C(=O)COC(=O)CN=C2NS(=O)(=O)c3ccccc32)c(C)n1CCc1ccc(Cl)cc1 | -2.6%
Cc1ccc2c(c1)N(CC(=O)N1CCCCC1c1cccnc1)C(=O)CO2 (stereo unspecified) | 2.7%
Cc1cc(NC(=O)COC(=O)c2cc3c(s2)CCC(C)C3)no1 (stereo unspecified) | -7.8%
CCN1C(=O)/C(=C/c2ccc(OC)c(OC)c2)N=C1SCC(=O)NCc1ccco1 | -23.0%
O=S(=O)(c1cccc(NC(=S)N2CCN(c3ccccc3)CC2)c1)C(F)F | -21.6%
Cc1cccc(NC(=O)CS(=O)(=O)Cc2ccccc2)n1 | -7.3%
O=C(NCCCO)c1ccc2[nH]c3ccccc3c2c1 | ?
Cc1ccc2nc(N/N=C\c3cccc(C)n3)cc(C)c2c1 | -9.2%
CSc1ccccc1NS(=O)(=O)c1ccc2c(c1)OCCO2 | -5.4%
Cn1c(SCC(=O)NNC(=O)Cc2ccccc2)nnc1-c1ccccc1 | -14.6%
CCCNc1c(N)c(=O)oc2ccccc12 | -20.6%
COC(=O)c1c(NC(=O)C2CC2)sc2c1CCCC2 | -11.1%

Continuation:
SMILES | HPGD block
N#C/C(C(=O)NCc1ccccc1)=C1/N=C(NC(=O)c2cccs2)c2ccccc21 | -20.9%
N#Cc1cc(Br)ccc1N=C1CCCN1c1ccccc1 | -16.1%
COc1cc2c(=O)n(Cc3ccco3)c(=O)n(CC(=O)c3ccc(Br)cc3)c2cc1OC | -3.0%
CN=C1SC(CC(=O)Nc2cc(Cl)ccc2Cl)C(=O)N1C (stereo unspecified) | -12.4%
O=Cc1cn(-c2ccccc2)nc1-c1ccc2c(c1)OCCO2 | -12.8%
CCCCCCC(=O)N/N=C1\CCCc2ccccc21 | -7.5%
CCN(CC)C(=O)CSc1nc2c(sc(=S)n2-c2ccccc2)c(=O)n1Cc1ccco1 | 31.6µM*
O=C(c1ccccc1NS(=O)(=O)c1ccc(Br)s1)N1CCCC1 | -8.8%
O=C(Nc1nnc(-c2ccccc2)o1)c1cc(Cl)sc1Cl | ?
CC(C)[C@@H]1[C@H]2CC[C@H](C2)[C@H]1N | 0.7%
COc1ccc(CC(NC(C)=O)C(=O)NC2CCN(S(=O)(=O)c3ccccc3)CC2)cc1OC (stereo unspecified) | 1.2%
Cc1c(C(=O)OCC(=O)N2CC(=O)Nc3ccccc32)oc2ccc(Br)cc12 | -16.4%
CCCCCc1nc2sc3c(c2c(=O)n1NC(=O)c1ccc([N+](=O)[O-])cc1)CC(C)(C)OC3 | -10.5%
O=C(COC(=O)/C=C/c1ccc(Cl)cc1)Nc1ccccc1-c1ccccc1 | -9.8%
Cc1cc(=O)[nH]c(SCC(=O)Nc2ccc(Cl)cn2)n1 | -14.3%
CC(=O)N(/N=C1\Sc2ccccc2C1=O)c1ccccc1C | -21.2%
CSc1ccccc1NC(=S)Nc1cccc(C(F)(F)F)c1 | -11.7%
COc1ccc(NC(=O)CCN2CC(C)OC(C)C2)c(OC)c1 (stereo unspecified) | 4.3%
CCc1ccc(S(=O)(=O)c2n[nH]n3c2nc(=O)c2ccccc23)cc1 | ?
N#Cc1nc(-c2ccco2)oc1N1CCCC1 | ?
Cc1cc(C(=O)COC(=O)c2ccc[nH]c2=O)c(C)n1-c1ccc(Br)cc1 | -12.3%
CCOC(=O)c1ccccc1NS(=O)(=O)c1ccc(S(=O)(=O)N2CCCC2)cc1 | -12.5%
CC(C(=O)Nc1ccccc1F)N1C(=O)c2ccccc2C1=O (stereo unspecified) | -7.6%
O=C(NCCN1CCOCC1)c1cccs1 | 0.0%
COc1cc(S(=O)(=O)NCC2CCCO2)c(OC)cc1Cl (stereo unspecified) | -2.6%

(listing goes on)
SMILES | HPGD block
Cc1ccc(C)c(C(=O)CN2C3=NCCCN3c3ccccc32)c1 | -3.5%
COc1ccccc1Oc1coc2c(CN(C)C)c(O)ccc2c1=O | ?
Cc1nnc(SCc2ccc(C(=O)Nc3cc(Cl)ccc3C)cc2)s1 | ?
CCOc1ccc(N=C2C(=O)N(CN3CCOCC3)c3ccccc32)cc1 | -12.4%
COC(=O)c1[nH]c(C)c(/C(O)=C2\C(=O)C(=O)N(CCN(C)C)C2c2ccc(OC)cc2)c1C (stereo unspecified) | -4.2%
CC(=O)NCCc1cc2cc(C)c(C)cc2[nH]c1=O | -25.0%
CC(=O)NC(CC(=O)NC1CCCCC1)c1ccccc1 (stereo unspecified) | -0.7%
CCOC(=O)N1CCC(N2C(=O)c3ccccc3C2Nc2ccc3c(C)cc(=O)oc3c2)CC1 (stereo unspecified) | ?
CNC(=O)c1nnc(Cc2ccc(F)cc2)o1 | -8.2%
CCCn1cc(S(=O)(=O)CC(=O)Nc2ccc(OCC)cc2)c2ccccc21 | -6.3%
CCOC(=O)c1sc(NC(=O)CSc2ncn[nH]2)c(C#N)c1C | -13.2%
O=C(Nc1ccc(Cl)cc1)Nc1ccccc1NS(=O)(=O)c1cccs1 | -15.4%
CCC(C)(C)n1nnnc1C(c1cc(OC)ccc1OC)N1CCC(C(N)=O)CC1 (stereo unspecified) | -5.3%
Cc1csc(NC(=O)c2nc(-c3ccccc3)n(-c3ccccc3)n2)n1 | -7.5%
O=c1cc(CN2CCOCC2)nc(C2CC2)[nH]1 | -4.4%
O=[N+]([O-])c1ccccc1Nc1ccccc1 | -20.2%
NC(=O)c1cn(-c2ccccc2)nc1-c1cccnc1 | -7.7%
Cc1csc(NC(=O)C2CCCCC2C(=O)O)n1 (stereo unspecified) | -6.6%
COc1ccc(CCNC(=O)CN(c2ccccc2OC)S(C)(=O)=O)cc1OC | -3.9%
O/N=C(\Cc1cscn1)c1ccc(O)cc1O | -8.6%
O=C(Cn1cnc2ccccc2c1=O)Nc1ccc2c(c1)CCC2 | -15.9%
COC(=O)c1ccc(Oc2nc(Nc3ccc(C)c(C)c3)nc(N(C)C)n2)cc1 | -12.6%
CCOc1ccc(S(=O)(=O)N(C)c2ccc(OCC(=O)NCc3ccco3)cc2)cc1 | -13.1%
Cc1cc(NCc2ccccc2)nc2ccccc12 | ?
c1ccc2c(c1)ncn2CCCOc1ccc2c(c1)CCC2 | ?

Additional results:
SMILES | HPGD block
O=C1CN(C(=O)c2ccccc2F)c2ccccc2N1 | -0.5%
COC(=O)c1c(NC(=O)CSc2nnc(-c3cccnc3)n2Cc2ccco2)sc(C)c1C | -17.5%
Cc1csc(NC(=O)/C=C/c2ccco2)n1 | ?
O=C(Nc1sc2c(c1C(=O)NC1CCCCC1)CCC2)c1ccco1 | ?
O=C(CCS(=O)(=O)c1cccc2nonc12)NCCc1ccccc1 | -7.9%
c1ccc(Nc2nc(-c3ccccn3)cs2)cc1 | -12.2%
CCCn1[nH]cc(SC)c(=O)c1=O | -6.3%
O=C(Nc1ccc2nc(-c3cccnc3)[nH]c2c1)C12CC3CC(CC(C3)C1)C2 | ?
COc1ccc(-n2cc(C(=O)O)c3ccccc3c2=O)cc1 | -14.9%
COc1ccccc1OC(=O)c1ccc(S(=O)(=O)N(C)C)cc1 | -1.4%
O=C(c1cc2c(s1)-c1ccccc1OC2)N1CCN(c2ccccn2)CC1 | ?
Cc1cc2cc(CN(Cc3ccc4c(c3)OCO4)C(=O)c3cnccn3)c3nnnn3c2cc1C | -18.4%
CCCCNC(=S)NNC(=O)c1csc2c1CCC(C)C2 (stereo unspecified) | -9.8%
CC(N)=NCCCC(N)C(=O)O (stereo unspecified) | 3.1%
O=C(CSc1nnc2scc(-c3ccccc3)n12)N1CCCc2ccccc21 | -9.0%
CCOc1ccccc1C1CC(c2ccccc2)Nc2nc(N)nn21 (stereo unspecified) | -14.1%
Cc1c(C(=O)O)oc2ccc(S(=O)(=O)NCCC3=CCCCC3)cc12 | ?
COCc1nnc(SCC(=O)NCc2ccccc2)n1-c1ccccc1 | 4.3%
Cc1ccc(-c2nc(CSCC(=O)NCc3cccnc3)c(C)o2)cc1 | -6.6%
N=C(N)SCc1ccc(Cl)cc1Cl | -9.4%
CCOc1cc(S(=O)(=O)NCc2ccc(OC)cc2)c(OCC)cc1-n1cnnn1 | -25.7%
Cc1c(C(=O)NCc2cccnc2)oc2ccc(S(=O)(=O)N3CCCCC3)cc12 | -14.6%
Cc1ccccc1-n1nnnc1SCc1csc(-c2ccccc2)n1 | -14.6%
COc1ccccc1OCCNc1nc2c(c(=O)n(C)c(=O)n2C)n1C | -6.8%
CCCCNC(=O)COC(=O)CCC(=O)c1cccs1 | -10.6%

The results go on:
SMILES | HPGD block
Cc1cnc(C(=O)Nc2ccccc2-n2cccc2)cn1 | -10.9%
COc1ccc(-c2nc3ccccc3c(=O)n2CCOc2cc(C)ccc2C)cc1 | ?
O=C(Oc1ccccc1N1C(=O)C2CCCCC2C1=O)c1ccc(Cl)cc1 (stereo unspecified) | -12.8%
O=C(Cc1c[nH]c2ccccc12)NC1(C(=O)NC2CCCCC2)CCCCC1 | -11.6%
COCCNC(=O)c1cc2c(-c3ccc(Cl)cc3)nn(C)c2s1 | ?
Cc1onc(-c2ccccc2Cl)c1C(=O)Nc1ccc2c(c1)OCO2 | -10.2%
